# GLA inh pH 4.5: alpha-galactosidase A (human) inhibition, pH 4.5 | P06280 | purified enzyme, 4-MU-alpha-Gal fluorescence, pH 4.5 | activity change, negative = inhibition, % at 105 µM | 230,000 tested, under 10 active; inconclusive = small, poorly fitted or top-dose-only inhibition, or a rising curve; inactive = flat fitted curve, though single readings scatter; no compound was filed as active;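 also: 0% = full activity with enzyme and -100% = basal without enzyme; dose as in the result columns while the protocol names 77 µM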
# Target sequence (P06280 whole entry, looked up): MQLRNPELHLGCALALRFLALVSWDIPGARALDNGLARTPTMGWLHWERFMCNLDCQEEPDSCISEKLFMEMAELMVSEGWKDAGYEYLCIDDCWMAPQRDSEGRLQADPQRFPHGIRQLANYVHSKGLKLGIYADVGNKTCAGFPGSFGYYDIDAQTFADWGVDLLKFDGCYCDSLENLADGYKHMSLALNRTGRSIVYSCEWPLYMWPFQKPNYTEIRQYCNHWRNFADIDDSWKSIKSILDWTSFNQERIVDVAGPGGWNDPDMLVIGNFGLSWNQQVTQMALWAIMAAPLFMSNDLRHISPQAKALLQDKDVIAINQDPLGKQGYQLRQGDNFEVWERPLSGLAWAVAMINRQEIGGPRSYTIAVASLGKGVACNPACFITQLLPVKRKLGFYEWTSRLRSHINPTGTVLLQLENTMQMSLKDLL
# Rango dissoc inh: prevents RanGTP from dissociating the Rango-importin beta complex; Biochemical FRET Rango-importin beta, RanGTP-induced dissociation; Potency, µM (top dose mostly 46.1 µM), inactives show top-dose activity change, negative = inhibition; O95149+P62826; 340,000 tested, 0.071% active; active means falling FRET ratio curve, often poorly fitted, with flat reads before Ran was added; inconclusive means other falling curves, or compound fluorescence or quenching; inactive means flat or rising ratio curve;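 also: potency is read from the fitted curve at half-maximal effect; % of control where 0% means no effect; nearly all actives have a fitted effect of over 45% in size; -100% = wells without RanGTP and RCC1; the record marks most hits as doubtful in a second field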
#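 Quantitative HTS using a FRET biosensor: 0.1 uM Rango, 0.25 uM importin beta, 0.6 uM Ran, 2 mM GTP, 0.2 uM RCC1 final, PBS with DTT, Tween-20 and BSA. Post-read taken 45 min after Ran addition.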
# Rango complex inh: prevents formation of the Rango-importin beta complex. Q14974. Rango CFP/YFP FRET sensor + importin beta, 45 min. Potency, µM (doses to about 92.2 µM), inactives show at the top dose inhibition of complex formation. 340,000 tested, 0.031% active; active = rising FRET ratio curve, often small or poorly fitted; inconclusive = mostly compound fluorescence or quenching in the first reads; inactive = flat curves in all reads;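 also: potency is read from the fitted curve at half-maximal effect; 0% = DMSO wells and 100% = buffer wells lacking importin beta; nearly all actives have a fitted effect of over 15% in size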
#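 FRET biosensor Rango (snurportin 1 IBB between N-terminal EYFP and C-terminal Cerulean), 50 nM in PBS/1 mM DTT/0.02% Tween-20/0.1% BSA, preincubated 5 min RT with compound; 0.125 microM importin beta added, 45 min RT, CFP/YFP FRET ratio read.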
# miR-21 reporter: raises the signal of a miR-21 reporter | HeLa miR-21 FLuc reporter, luciferase, 48 h | Potency, µM (top dose mostly 38.3 µM), without a hit: at the top dose reporter change, positive = more light | 340,000 tested, under 10 active | AID 2288; active = well fitted rising curve with a large enough effect; inconclusive = small, poorly fitted or top-dose-only effect; inactive = no such curve, though single readings can be large or run the other way;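 also: % of control where 0% means no effect; miR-21 action dims this reporter so a rising signal means less miR-21 action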
#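 HeLa cells stably expressing CMV-driven firefly luciferase with a downstream miR-21 binding sequence, endogenously expressing miR-21, were treated with titrations (up to about 40uM final) for 48 hours at 37 degree Celsius. Luciferase luminescence was read after lysis.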
# * marks the source's active call; other numbers are inactive results; ? = inconclusive; nt = no result given; & = joins results of further samples; [ ] = remark or other dose.
# Labels used below – A = GLA inh pH 4.5; B = Rango dissoc inh; C = Rango complex inh; D = miR-21 reporter
> CN(C)C(CNC(=O)CCC(=O)c1ccc(Br)cc1)c1ccccc1 (stereo not given)
  A = nt	B = -3%	C = 3.6%	D = -8%

> Cc1ccnc(Sc2nc3c(c(=O)[nH]c(=O)n3C)n2CCCc2ccccc2)n1
  A = 9	B = 6%	C = -1.0%	D = -18%

> COC(=O)c1ccc(N=NN2CCCCCC2)cc1
  A = -3	B = ?	C = 2.6%	D = -77%

> CC(=O)NC(c1ccc(C)cc1)c1cc([N+](=O)[O-])c2cccnc2c1O (stereo not given)
  A = -8	B = -1%	C = -0.1%	D = 11%

> CN(C)S(=O)(=O)Oc1cccc(C(=O)Nc2cccc(Cl)c2)c1
  A = -23	B = -9%	C = -0.6%	D = 8%

> CC(=O)Nc1ccc(NC(=O)C(C)Sc2n[nH]c(-c3cccs3)n2)cc1 (stereo not given)
  A = nt	B = -7%	C = -3.3%	D = nt

> CCCCc1cc(-c2n[nH]c(=S)o2)c2ccccc2n1
  A = nt	B = -9%	C = -0.2%	D = -10%

> CC(=O)NC(c1ccc(C(C)C)cc1)c1c(O)ccc2ccccc12 (stereo not given)
  A = nt	B = 7%	C = -0.2%	D = nt

> COc1ccccc1C(=O)Nc1ccc(Br)cc1C
  A = -11	B = 10%	C = -1.0%	D = -47%

> CN(C)c1ccc(C(=O)OCC(=O)NCCC2=CCCCC2)cc1
  A = -2	B = -5%	C = -1.4%	D = -7%

> O=C(CN1CCCC1c1cccs1)Nc1cc(S(=O)(=O)N2CCCCC2)ccc1Cl (stereo not given)
  A = nt	B = 0%	C = 0.0%	D = nt

> O=C(Cc1ccc(S(=O)(=O)N2CCOCC2)s1)Nc1cc(C(F)(F)F)cc(C(F)(F)F)c1
  A = nt	B = -17%	C = 1.7%	D = nt

> Cc1sc(NC(=O)CN(Cc2ccc(F)cc2)C(=O)C(C)(C)C)c(C(N)=O)c1C
  A = 2	B = -4%	C = 2.4%	D = -6%

> CCN1CCN(C(CNS(=O)(=O)c2ccc(OC)c(C)c2)c2cccnc2)CC1 (stereo not given)
  A = nt	B = -1%	C = 2.7%	D = -2%

> O=C(Nc1ccc(S(=O)(=O)Nc2ccccc2F)cc1)N1CCCCC1
  A = nt	B = 9%	C = -1.6%	D = 0%

# Looked up above:
# Entry for CN(C)c1ccc(C(=O)OCC(=O)NCCC2=CCCCC2)cc1 under miR-21 reporter: -7%
# Entry for CN(C)S(=O)(=O)Oc1cccc(C(=O)Nc2cccc(Cl)c2)c1 under Rango complex inh: -0.6%

# No new results follow: an excerpt of the list.
# Labels used below – A = GLA inh pH 4.5; B = Rango dissoc inh; C = Rango complex inh; D = miR-21 reporter
> CN(C)C(CNC(=O)CCC(=O)c1ccc(Br)cc1)c1ccccc1 (stereo not given)
  A = nt	B = -3%	C = 3.6%	D = -8%

> Cc1ccnc(Sc2nc3c(c(=O)[nH]c(=O)n3C)n2CCCc2ccccc2)n1
  A = 9	B = 6%	C = -1.0%	D = -18%

> COC(=O)c1ccc(N=NN2CCCCCC2)cc1
  A = -3	B = ?	C = 2.6%	D = -77%

> CC(=O)NC(c1ccc(C)cc1)c1cc([N+](=O)[O-])c2cccnc2c1O (stereo not given)
  A = -8	B = -1%	C = -0.1%	D = 11%

> CN(C)S(=O)(=O)Oc1cccc(C(=O)Nc2cccc(Cl)c2)c1
  A = -23	B = -9%	C = -0.6%	D = 8%

# (list continues)
# Labels used below – A = GLA inh pH 4.5; B = Rango dissoc inh; C = Rango complex inh; D = miR-21 reporter
> CN(C)S(=O)(=O)c1ccc(N2CCCC2)c(C(=O)NCC(=O)Nc2ccc(F)c(F)c2)c1
  A = nt	B = 3%	C = 0.6%	D = nt

> CCS(=O)(=O)c1nc(S(=O)(=O)c2ccc(C)cc2)c(N2CC(C)CC(C)C2)s1 (stereo not given)
  A = nt	B = -1%	C = 3.2%	D = 3%

> O=C(Cn1c(=O)sc2ccccc21)Nc1ccccc1C(=O)O
  A = 6	B = 3%	C = 4.6%	D = -5%

> Cc1ccc(S(=O)(=O)NN2Cc3ccccc3C2=N)cc1
  A = 1	B = 14%	C = -0.1%	D = -1%

> Cc1cc(C)cc(OCC(=O)Nc2cc(NC(=O)COc3cc(C)cc(C)c3)cc(C(=O)O)c2)c1
  A = nt	B = 26%	C = 0.3%	D = 2%

> S=c1[nH]nc(C2CCCCC2)o1
  A = 3	B = -6%	C = 0.5%	D = -1%

> Nc1cccc2cc(-c3ccccc3)oc12
  A = nt	B = -1%	C = 1.8%	D = nt

> Cc1cccn2c1nc(=S)n2C(=O)c1ccco1
  A = -5	B = 8%	C = 0.2%	D = -64%

> COc1ccc(S(=O)(=O)Nc2ccc(N3CCOCC3)cc2)cc1[N+](=O)[O-]
  A = 2	B = -8%	C = 0.6%	D = -3%

> CN(CC(=O)Nc1ccccc1Br)C(=O)CN1CCN(Cc2ccc(Cl)cc2)CC1
  A = nt	B = -2%	C = -2.8%	D = nt

> CC(C)(C)c1ccc(S(=O)(=O)N2C=CC(C(F)(F)F)=NCC2)cc1
  A = 6	B = -15%	C = 1.7%	D = 8%

> COc1cc(C=O)ccc1OC(=O)c1ccc(C(C)C)cc1
  A = 5	B = -4%	C = 0.4%	D = -7%

> CN(C(=O)c1ccco1)c1nc(-c2ccccc2)cs1
  A = nt	B = 1%	C = -1.3%	D = -62%

> O=C(/C=C/c1ccc(Cl)cc1)Nc1ccc(CN2CCOCC2)cc1
  A = -2	B = 19%	C = -0.3%	D = 21%

> COc1ccc(-n2ccnc2)cc1
  A = 1	B = 23%	C = -1.3%	D = 1%

# A different layout for part of the listing above:
# The line under a structure holds: GLA inh pH 4.5 | Rango dissoc inh | Rango complex inh | miR-21 reporter
> CN(C(=O)c1ccco1)c1nc(-c2ccccc2)cs1
 : nt | 1% | -1.3% | -62%
> COc1ccc(S(=O)(=O)Nc2ccc(N3CCOCC3)cc2)cc1[N+](=O)[O-]
 : 2 | -8% | 0.6% | -3%
> Cc1ccc(S(=O)(=O)NN2Cc3ccccc3C2=N)cc1
 : 1 | 14% | -0.1% | -1%
> Cc1cc(C)cc(OCC(=O)Nc2cc(NC(=O)COc3cc(C)cc(C)c3)cc(C(=O)O)c2)c1
 : nt | 26% | 0.3% | 2%
> COc1cc(C=O)ccc1OC(=O)c1ccc(C(C)C)cc1
 : 5 | -4% | 0.4% | -7%

# The listing continues.
# Labels used below – A = GLA inh pH 4.5; B = Rango dissoc inh; C = Rango complex inh; D = miR-21 reporter
> CN(C)C(CNC(=O)c1ccc(NS(=O)(=O)c2ccc3[nH]c(=O)[nH]c3c2)cc1)c1ccccc1 (stereo not given)
  A = nt	B = -13%	C = -0.3%	D = nt

> COc1ccc(CC(=O)Nc2c(C(=O)N3CCN(c4ncccn4)CC3)oc3ccccc23)cc1OC
  A = nt	B = 2%	C = 0.1%	D = -3%

> CCN(C(=O)COC(=O)/C=C/c1c(C)nn(-c2ccccc2)c1C)c1c(N)n(Cc2ccccc2)c(=O)[nH]c1=O
  A = nt	B = -5%	C = -0.5%	D = nt

> CCCN(CCO)C1CCN(CCc2ccccc2)CC1
  A = nt	B = -1%	C = -0.4%	D = -5%

> COc1ccc(Br)cc1CNC(=O)CN1C(=O)C(c2ccccc2)Oc2cccnc21 (stereo not given)
  A = nt	B = 7%	C = ?	D = -1%

> CCN1CC(C)(C)N(C(=O)c2ccccc2)CC1(C)C
  A = nt	B = -1%	C = 0.2%	D = nt

> CCC(Sc1ccc2nnc(CCNS(=O)(=O)c3ccc(OC)cc3)n2n1)C(=O)OC (stereo not given)
  A = -6	B = -8%	C = -0.7%	D = -2%&-2%

> COc1ccc(-c2csc(N(CCCN(C)C)C(=O)c3ccc(F)cc3)n2)cc1
  A = nt	B = 17%	C = 0.0%	D = 0%

> CCOC(=O)c1c(-c2cccs2)csc1NC(=O)c1ccncc1
  A = 5	B = 3%	C = 0.6%	D = -7%

> Cc1cccc(C(=O)OCc2cncs2)c1
  A = 1	B = 15%	C = -0.2%	D = -16%

> NC(N)=NCCCC(NC(=O)c1ccccc1)C(=O)Nc1ccc([N+](=O)[O-])cc1 (stereo not given)
  A = nt	B = -9%	C = 2.7%	D = nt

> CS(=O)(=O)Nc1ccc(C2=NN(S(=O)(=O)c3ccc(F)cc3)C(c3ccco3)C2)cc1 (stereo not given)
  A = 6[21.1 µM]	B = -23%	C = ?	D = 8%

> O=C(O)c1ccccc1C(=O)c1ccc(Cl)cc1
  A = -10	B = 6%	C = 3.2%	D = 5%

> Cc1c(Nc2nc3ccccc3nc2NS(=O)(=O)c2cccs2)c(=O)n(-c2ccccc2)n1C
  A = -15	B = -4%	C = 3.1%	D = -31%

> O=C(OCc1ccc(Br)cc1)c1cccc(S(=O)(=O)N2CCCC2)c1
  A = nt	B = 12%	C = 1.8%	D = nt

# Further records
# Labels used below – A = GLA inh pH 4.5; B = Rango dissoc inh; C = Rango complex inh; D = miR-21 reporter
> O=C(/C=C/Nc1ccc(Oc2ccccc2)cc1)c1ccco1
  A = 2	B = ?	C = ?	D = -36%

> CCCN(CCC(=O)Nc1cc(OC)cc(OC)c1)CC1CC1
  A = -11	B = 5%	C = -0.8%	D = -6%

> CC(=O)c1sc(NC(=O)C(C)(C)C)nc1C
  A = -6	B = 0%	C = -0.3%	D = -7%

> CSc1nccc(-c2cc(Cl)sc2Cl)n1
  A = -7	B = 3%	C = -1.5%	D = -8%

> COc1cc(CNc2nc(C)c([N+](=O)[O-])c(C)c2C#N)cc(OC)c1OC
  A = -1	B = 29%	C = 2.1%	D = 22%

> CC(Oc1ccc(Cl)cc1)C(=O)Nc1nccs1 (stereo not given)
  A = -4	B = 1%	C = -4.0%	D = -6%

> CC1Cc2ccccc2N1S(=O)(=O)c1cccc(C(=O)OCC(=O)N2CCOCC2)c1 (stereo not given)
  A = nt	B = 5%	C = -2.0%	D = nt

> COc1ccc(CNC(=O)CNC(=O)c2sc3ccccc3c2Cl)cc1OC
  A = nt	B = 15%	C = 1.8%	D = nt

> CCCCNC(=O)Nc1ccnn1C1CCCCC1
  A = -41	B = 0%	C = 1.3%	D = 4%

> c1ccc(CSc2nnc(-c3ccccn3)n2-c2ccccc2)cc1
  A = 2	B = 10%	C = -1.1%	D = -4%

> COc1ccc(CNCc2ccc(C)cc2)c(OC)c1
  A = nt	B = -1%	C = -0.1%	D = 4%

> Cc1ccccc1Nc1nnc(SCC(=O)Nc2ncc(C(F)(F)F)cc2Cl)s1
  A = 4	B = 8%	C = 2.6%	D = -3%

> COc1ccc(OC)c(/C=C/C(=O)c2ccc(Cl)cc2)c1
  A = 8	B = ?	C = ?	D = ?

> CN(C(=O)COc1ccc2c(-c3ccccc3)cc(=O)oc2c1)C1CCS(=O)(=O)C1 (stereo not given)
  A = nt	B = 5%	C = -0.1%	D = -4%

> COc1cc2oc(=O)ccc2c(OC)c1CC(O)C(C)(C)O (stereo not given)
  A = 6	B = 15%	C = -4.9%	D = -3%

# (listing goes on)
# Labels used below – A = GLA inh pH 4.5; B = Rango dissoc inh; C = Rango complex inh; D = miR-21 reporter
> CCOc1cccc(C(=O)NC(c2ccccc2)C(C)C)c1 (stereo not given)
  A = 7	B = -8%	C = 1.9%	D = -4%

> COc1ccc(C(=O)N/C(=C\c2ccccc2)C(=O)Nc2ccc(C(=O)NCC(=O)O)cc2)cc1
  A = nt	B = 0%	C = -1.9%	D = -4%

> CCCNC(=O)c1c(NC(=O)C2COc3ccccc3O2)sc2c1CCCC2 (stereo not given)
  A = 3	B = -11%	C = 3.2%	D = -10%

> CC1(O)CC(c2ccc(Cl)cc2)=NN1C(=O)c1ccc([N+](=O)[O-])cc1 (stereo not given)
  A = 0	B = -10%	C = 0.3%	D = 2%

> COC(=O)C1CCN(C(=O)CN2C(=O)NC3(CCC(C)CC3)C2=O)CC1 (stereo not given)
  A = nt	B = 0%	C = 1.6%	D = nt

> Clc1ccc(/C=C\c2nccc3c2[nH]c2ccccc23)cc1
  A = 21[21.1 µM]	B = ?	C = ?	D = 3%

> Cc1ccc(NS(=O)(=O)c2c(C)[nH]c(=O)[nH]c2=O)c(C)c1
  A = nt	B = 1%	C = -0.2%	D = 1%&-2%

> COc1ccccc1Nc1nc(-c2sc(NC(=O)c3ccco3)nc2C)cs1
  A = -6	B = 21%	C = -3.4%	D = 26%

# An excerpt; count on the stated rates, not on these rows.
